A1 inh = inhibitors of A1 | 21,000 compounds, 0.51% hits | caspase activation, % (concentration not given with the values) | MEF A1-2A-BIM cells, caspase-Glo luminescence, 3 h; percent of clofoctol signal, DMSO as zero;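 active = most replicate scores above 10, or exactly half above 10 with mean activity above 10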;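 note: effector caspase 3 and 7 activity cleaving a DEVD luciferin substrate; 50 nL library stock added to about 30 µL; numbers are from one replicate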
BJeLR viab HTS = lowers viability of BJeLR cells; BJeLR fibroblasts viability, CellTiterGlo ATP luminescence, 48 h; HRASV12, hTERT and SV40 LT/ST transformed; viability loss activity score, % (concentration not given with the values); 30,000 compounds, 0.64% hits; in the data active = viability loss activity score above about 50%; about a fifth of its hits are not listed in these tables;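 note: higher score means fewer live cells and less ATP luminescence; stock transfer was 50 or 100 nL into about 30 µL; 0% = vehicle wells and 100% = a reference killing control; one replicate is shown; the record names a cut of 85%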
An asterisk follows results filed as active; x = no result given.

SMILES | A1 inh | BJeLR viab HTS
S=C(NCc1ccco1)NCC1CC(c2ccccc2)=NO1 (centres undefined) | -0.6 | -5.3
O=c1cc(-c2ccc(O)cc2)oc2c(C3OCC(O)C(O)C3O)c(O)c(C3OC(CO)C(O)C(O)C3O)c(O)c12 (centres undefined) | 0.0 | -1.2
C[C@@H]1CN([C@@H](C)CO)C(=O)c2cccc(NC(=O)Nc3ccc(C(F)(F)F)cc3)c2O[C@H]1CN(C)C(=O)NC1CCCCC1 | x | 5.3
CN1CCN(c2ccc(CNC(=O)c3cccnc3Oc3ccc(Cl)cc3)cc2)CC1 | 0.0 | 0.3
Cc1noc(C)c1NC(=O)N(C)C[C@@H]1Oc2ccc(NC(=O)CCCN(C)C)cc2C(=O)N([C@H](C)CO)C[C@H]1C | 0.5 | -1.3
CCN1CSC(=S)N(Cc2ccccc2)C1 | -0.8 | 54*
C[C@@H]1CN([C@H](C)CO)C(=O)c2cc(NS(=O)(=O)c3ccc(Cl)cc3)ccc2O[C@@H]1CN(C)Cc1ccc(Oc2ccccc2)cc1 | 0.6 | -3.4
C[C@H]1CN([C@@H](C)CO)C(=O)c2cc(NC(=O)Cc3cn(C)c4ccccc34)ccc2O[C@@H]1CN(C)C(=O)Nc1ccccc1 | -0.6 | 2.2
C[C@H]1CN([C@@H](C)CO)C(=O)c2cc(N(C)C)ccc2O[C@@H]1CN(C)C | -0.3 | -3.1
O=c1[nH]c(C2=C(O)Cn3c2nc(=O)c2ccccc23)nc2ccccc12 | 0.5 | 0.6
O=c1cc(CSc2n[nH]c(-c3cccs3)n2)c2ccc(O)cc2o1 | 0.1 | -1.3
CC1(C)CC(C)(O)P(=O)(c2ccccc2)O1 (centres undefined) | 0.3 | 4.4
O=C(CN1C(=O)C(c2ccccc2)=NC12CCCC2)Nc1ccccc1 | 3.4 | 24
Cc1ccccc1-n1c(SCC(=O)O)nc2sc3c(c2c1=O)CC(C)(C)OC3 | 0.2 | 0.2
COc1ccc(S(=O)(=O)NCc2csc(-c3ccccc3)n2)cc1OC | 0.2 | 0.5
C[C@H]1CN([C@@H](C)CO)C(=O)c2cccc(NC(=O)C3CCOCC3)c2O[C@@H]1CN(C)S(=O)(=O)c1ccccc1 | x | 3.4
C[C@@H]1CN([C@H](C)CO)C(=O)c2cc(NC(=O)CCCCCC(=O)Nc3ccccc3N)ccc2O[C@H]1CN(C)S(C)(=O)=O | x | -2.1
O=S(=O)(c1ccc(Cl)cc1)N1CCc2ccccc21 | -0.8 | 4.9
Cc1noc(C)c1NC(=O)N(C)C[C@@H]1Oc2c(NC(=O)c3cnccn3)cccc2C(=O)N([C@@H](C)CO)C[C@@H]1C | x | -3.0
Cc1cccc(-c2nnc(SCC(=O)N3CCCCC3C)o2)c1 (centres undefined) | x | 4.6
Nc1ccc(/C=C/c2ccccc2)cc1 | -5.6 | 1.1
Cc1nc2c(C(=O)NCc3ccccc3)c[nH]n2c(=O)c1Cl | -0.8 | -2.6
C[C@H]1CN([C@@H](C)CO)C(=O)c2cccc(NS(=O)(=O)c3ccc(F)cc3)c2O[C@H]1CN(C)S(=O)(=O)c1ccc(F)cc1 | x | -4.0
Cc1oc(-c2ccc(Cl)cc2)nc1CN1CCC(C(=O)NC(C)CCc2ccccc2)CC1 (centres undefined) | x | -0.6
C[C@@H]1CN([C@@H](C)CO)C(=O)c2cc(NS(=O)(=O)c3cccs3)ccc2O[C@@H]1CN(C)S(=O)(=O)c1ccc(Cl)cc1 | 0.2 | 0.1
C[C@H](CO)N1C[C@H](C)[C@H](CN(C)C(=O)Nc2cccc3ccccc23)Oc2c(NS(=O)(=O)c3cn(C)cn3)cccc2C1=O | x | -4.9
CCC(C)N1CCC2(CC1)N=c1c(c3c4c5c(C)c(O)c3c(O)c1=NC(=O)/C(C)=C\C=C[C@H](C)[C@H](O)[C@@H](C)[C@@H](O)[C@@H](C)[C@H](OC(C)=O)[C@H](C)[C@@H](OC)/C=C\O[C@@](C)(O5)C4=O)N2 (some centres undefined) | -0.3 | -2.5
C[C@H](CO)N1C[C@H](C)[C@H](CN(C)S(=O)(=O)c2ccccc2)Oc2c(NS(=O)(=O)c3ccc(Cl)cc3)cccc2C1=O | x | -3.6
COc1ccc(NC(=O)Nc2cccc3c2O[C@@H](CN(C)S(=O)(=O)c2cn(C)cn2)[C@@H](C)CN([C@@H](C)CO)C3=O)cc1 | x | 1.4
COc1ccc(NC2SC(=O)N(Cc3ccccc3)C2=O)cc1 (centres undefined) | 0.3 | -13
CC(C)(C)Nc1nc2nonc2nc1NC(C)(C)C | -0.8 | -5.3
CCN(CC)C(=O)c1ccc(COc2cccc3ccccc23)o1 | x | 8.9
O=C(NCc1cccs1)c1cc2c(=O)[nH]c3ccccc3c2s1 | x | 2.9
Cc1cc(C)cc(Oc2c(C(F)(F)F)oc3c(CN4CC(C)OC(C)C4)c(O)ccc3c2=O)c1 (centres undefined) | 0.1 | 4.4
Nc1ccc(-c2nc3ccccc3[nH]2)cc1 | -6.5 | 20
OC(c1ccccc1)c1nc2ccccc2n1Cc1ccccc1 (centres undefined) | -0.4 | 1.5
COC(=O)c1sc2c(C)cc(Cl)c(C)c2c1C(=O)Oc1ccccc1 | -0.4 | 1.7
CCCNC(=O)CCc1c(C)nc2c(c1C)c(=O)n(C)c(=O)n2C | x | 3.8
CC(C)NC(=O)Nc1cccc2c1O[C@H](CN(C)S(=O)(=O)c1ccc(F)cc1)[C@H](C)CN([C@@H](C)CO)C2=O | x | 4.6
CCOC(=O)C1C(=O)C(=O)Nc2ccccc21 (centres undefined) | 0.7 | -4.9

Part of the list above in order of heavy-atom count, low to high.
SMILES | A1 inh | BJeLR viab HTS
Cc1cccc(-c2nnc(SCC(=O)N3CCCCC3C)o2)c1 (centres undefined) | x | 4.6
COc1ccc(S(=O)(=O)NCc2csc(-c3ccccc3)n2)cc1OC | 0.2 | 0.5
C[C@H](CO)N1C[C@H](C)[C@H](CN(C)S(=O)(=O)c2ccccc2)Oc2c(NS(=O)(=O)c3ccc(Cl)cc3)cccc2C1=O | x | -3.6
C[C@H]1CN([C@@H](C)CO)C(=O)c2cc(NC(=O)Cc3cn(C)c4ccccc34)ccc2O[C@@H]1CN(C)C(=O)Nc1ccccc1 | -0.6 | 2.2

(listing goes on)
SMILES | A1 inh | BJeLR viab HTS
O=C1Nc2ccccc2Oc2cc(Sc3ccccc3)ccc21 | -0.2 | -8.4
COc1cc(/C=C2\Oc3cc(O)cc(O)c3C2=O)cc(OC)c1O | 0.2 | -7.3
Cc1cc(C(=O)Nc2cccc3c2O[C@@H](CN(C)C(=O)Nc2ccc(C(F)(F)F)cc2)[C@@H](C)CN([C@H](C)CO)C3=O)n(C)n1 | x | 0.5
O=C(Nc1ccccc1)Nc1ccc(Nc2ccccc2)cc1 | -5.7 | 0.8
C[C@H](CO)N1C[C@H](C)[C@@H](CN(C)S(=O)(=O)c2ccc(F)cc2)Oc2c(NC(=O)NC3CCCCC3)cccc2C1=O | x | 4.7
C[C@@H]1CN([C@H](C)CO)C(=O)c2cccc(NS(=O)(=O)c3ccc(Cl)cc3)c2O[C@@H]1CN(C)Cc1ccc(Oc2ccccc2)cc1 | x | 4.3
Cc1cccc2sc(N(CCN(C)C)C(=O)c3ccc4ncsc4c3)nc12 | x | 9.1
NC(=NC(=O)c1cccc(C(F)(F)F)c1)c1ccc(C(F)(F)F)cn1 | 0.4 | 4.0
CN(C)c1nc(Nc2ccc(OC(F)(F)F)cc2)nc(NC(C)(C)C)n1 | -0.7 | 8.0
O=C(NC1=NCCS1)Nc1ccc2snnc2c1 | -5.2 | -1.6
C[C@H](CO)N1C[C@H](C)[C@H](CN(C)S(=O)(=O)c2ccc(F)cc2)Oc2ccc(NC(=O)Cn3cnnn3)cc2C1=O | -0.4 | 0.2
C[C@@H]1CN([C@H](C)CO)C(=O)c2cccc(NS(=O)(=O)c3cccs3)c2O[C@H]1CN(C)Cc1ccc(-c2ccccc2)cc1 | x | 1.1
Cc1nc2cc(NC(=O)c3ccc(S(=O)(=O)N(C)Cc4ccccc4)cc3)ccc2s1 | -0.7 | 25
CNC[C@@H]1Oc2c(NS(C)(=O)=O)cccc2C(=O)N([C@H](C)CO)C[C@H]1C | x | 3.6
CCCCN1C(C)=NC(C(F)(F)F)(C(F)(F)F)C2=C1CC(C)(C)CC2=O | -0.3 | 3.6
Cc1ccc2[nH]c(=O)c(CN(C3CCCCC3)S(=O)(=O)c3ccccc3)cc2c1 | 0.8 | 0.9
CC(C)NC(=O)N(C)C[C@@H]1Oc2ccc(NC(=O)CCCCCC(=O)Nc3ccccc3N)cc2C(=O)N([C@H](C)CO)C[C@H]1C | x | 0.9
COc1ccc(C(=O)Nc2ccc(N3CCN(C(=O)OC(C)(C)C)CC3)nc2)cc1 | -0.3 | 8.7
CCCCCc1ccc(/C=C/C(=O)Nc2ccccc2C(=O)O)cc1 | -2.3 | 1.0
Cc1ccc(S(=O)(=O)Nc2cccc3c2O[C@H](CN(C)S(=O)(=O)c2ccccc2)[C@@H](C)CN([C@@H](C)CO)C3=O)cc1 | x | 0.1

Full records as entered above. Order of values: A1 inh, BJeLR viab HTS
CN(C)c1nc(Nc2ccc(OC(F)(F)F)cc2)nc(NC(C)(C)C)n1 across the screens: -0.7, 8.0
COc1cc(/C=C2\Oc3cc(O)cc(O)c3C2=O)cc(OC)c1O across the screens: 0.2, -7.3
NC(=NC(=O)c1cccc(C(F)(F)F)c1)c1ccc(C(F)(F)F)cn1 across the screens: 0.4, 4.0

(list continues)
SMILES | A1 inh | BJeLR viab HTS
CN1C(=O)c2ccccc2-n2c(nc3ccccc3c2=O)[C@@]12O[C@H]2c1ccccc1 | 0.4 | -9.4
COc1ccc(S(=O)(=O)N(C)C[C@@H]2Oc3c(NC(=O)Nc4cccc5ccccc45)cccc3C(=O)N([C@H](C)CO)C[C@@H]2C)cc1 | x | -1.3
CCOC(=O)c1ccc(NC(=O)CNC(=O)C23CC4CC(CC(C4)C2)C3)cc1 | -0.4 | 4.8
Cc1cccn2c(=O)c(/C=N/O)c(N3CCCCC3)nc12 | 0.3 | 2.6
C[C@H]1CN([C@@H](C)CO)C(=O)c2cccc(N(C)C)c2O[C@H]1CN(C)C(=O)Nc1ccc(F)cc1 | x | -1.9
COc1ccc(NC(=O)Nc2cccc3c2O[C@H](CN(C)C(=O)Nc2ccc(F)cc2)[C@@H](C)CN([C@H](C)CO)C3=O)cc1 | x | 0.6
C[C@@H]1CN([C@@H](C)CO)C(=O)c2cccc(NC(=O)C3CC3)c2O[C@H]1CN(C)Cc1ccc2c(c1)OCO2 | x | -2.7
C[C@H]1CN([C@@H](C)CO)C(=O)c2cc(NC(=O)Nc3cccc4ccccc34)ccc2O[C@H]1CN(C)Cc1ccc(Cl)c(Cl)c1 | -0.7 | 0.9
COc1ccccc1NCC(=O)NN | -0.1 | 6.3
CSc1nnc(Cc2ccccc2)c(=O)[nH]1 | 1.8 | 6.4
COc1ccc(CN(C)C[C@H]2Oc3c(NC(=O)C4CCOCC4)cccc3C(=O)N([C@@H](C)CO)C[C@@H]2C)cc1 | x | 3.6
COc1ccc(S(=O)(=O)Nc2ccc3c(c2)C(=O)N([C@@H](C)CO)C[C@@H](C)[C@@H](CN(C)CC2CC2)O3)cc1 | 0.0 | 1.9
CC(C)NC(=O)N(C)C[C@@H]1Oc2ccc(NC(=O)Nc3ccc(F)cc3)cc2C(=O)N([C@H](C)CO)C[C@H]1C | -0.8 | -4.9
C[C@H](CO)N1C[C@H](C)[C@H](CN(C)S(C)(=O)=O)Oc2ccc(NS(=O)(=O)c3ccccc3)cc2C1=O | -0.2 | -10
C[C@@H]1CN([C@@H](C)CO)C(=O)c2cccc(NS(=O)(=O)c3ccc(F)cc3)c2O[C@@H]1CN(C)S(=O)(=O)c1ccc(F)cc1 | x | 0.0
CCC(C)OC(=O)COc1ccc2c(=O)c(Oc3ccccc3Cl)coc2c1 (centres undefined) | -0.2 | -7.1
CC12CCC(=O)C=C1CCC1(C)C2(C)CCC2(C)C(C(=O)CO)CCC21C (centres undefined) | -0.2 | -3.7
Cc1cc(OC(=O)C2COc3ccccc3O2)cc(C)c1Cl (centres undefined) | -0.6 | 2.8
Cc1noc(C)c1S(=O)(=O)Nc1cccc2c1O[C@H](CN(C)Cc1ccc(Cl)c(Cl)c1)[C@H](C)CN([C@@H](C)CO)C2=O | x | -3.3
C[C@@H]1CN([C@@H](C)CO)C(=O)c2cc(NC(=O)C3CC3)ccc2O[C@H]1CN(C)S(=O)(=O)c1ccc(F)cc1 | -0.3 | 0.8

Shown with values under each structure: part of the list above.
Every second line gives: A1 inh | BJeLR viab HTS
- Cc1cc(OC(=O)C2COc3ccccc3O2)cc(C)c1Cl (centres undefined)
  -0.6 | 2.8
- Cc1noc(C)c1S(=O)(=O)Nc1cccc2c1O[C@H](CN(C)Cc1ccc(Cl)c(Cl)c1)[C@H](C)CN([C@@H](C)CO)C2=O
  x | -3.3

Continuation.
SMILES | A1 inh | BJeLR viab HTS
CC(C)(C)c1ccc(/C=C2/NC(=O)N(Cc3ccc(Br)cc3)C2=O)cc1 | 0.5 | 0.6
COc1ccc(C(=O)N(CC#N)CC#N)cc1 | -0.9 | 2.2
C[C@@H]1CN([C@H](C)CO)C(=O)c2cccc(NS(=O)(=O)c3cn(C)cn3)c2O[C@@H]1CN(C)Cc1ccc(C(F)(F)F)cc1 | x | 4.4
CC/C=C\C/C=C\C/C=C\C/C=C\C/C=C\C/C=C\CCC(=O)O | 0.3 | -5.5
CC1(C)CC(O)CC2(C)OC(=O)C=C12 (centres undefined) | -0.4 | -0.5
O=S(=O)(/N=C(\OC1CCCCC1)c1ccccc1)c1ccccc1 | -0.6 | 1.5
C[C@@H]1CN([C@H](C)CO)C(=O)c2cc(NC(=O)Cn3cnnn3)ccc2O[C@@H]1CN(C)Cc1ccc2c(c1)OCO2 | -0.5 | -0.2

High-throughput results deposited in PubChem by Broad Institute.

Not all compounds are listed. The share of hits here may be higher or lower than overall.
